High-throughput results as filed in PubChem BioAssay.
Cruzain inh Det: cruzain (T. cruzi) inhibition with detergent; P25779; purified cruzain, Z-FR-AMC fluorescence, 0.01% Triton; Potency, µM, for the others: max response, negative = inhibition, actives largely listed as inhibitors; 0.43% of 200,000 active; AID 1478;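 note: plate controls were neutral wells for no effect and buffer without enzyme for full effect; nearly all actives have a fitted effect of over 40% in size; top concentration of the series not given in the record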
Target sequence (P25779 123-467 limits assumed): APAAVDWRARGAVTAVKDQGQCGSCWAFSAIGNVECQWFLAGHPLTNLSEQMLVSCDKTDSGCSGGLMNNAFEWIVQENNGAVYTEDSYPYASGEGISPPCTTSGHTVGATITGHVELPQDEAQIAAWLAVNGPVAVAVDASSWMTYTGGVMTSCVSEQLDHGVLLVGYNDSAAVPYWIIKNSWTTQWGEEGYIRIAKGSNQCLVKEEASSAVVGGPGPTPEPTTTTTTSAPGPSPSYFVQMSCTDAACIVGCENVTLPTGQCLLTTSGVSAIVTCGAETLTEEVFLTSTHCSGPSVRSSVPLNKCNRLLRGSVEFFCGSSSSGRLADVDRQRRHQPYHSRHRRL
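Detergent-containing run (0.01% Triton X-100) in acetate buffer pH 5.5 with 5 mM DTT: enzyme at 1.5 nM final, 15 min compound preincubation at room temperature, then 2 uM Z-FR-AMC substrate. Activity taken as 60 s fluorescence increase at 360/450 nm.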
Lassa entry inh: blocks Lassa virus binding to or entry into cells; Lassa virus pseudotype entry inhibition, cell reporter; control for the full effect not named in the record; Potency, µM (series often up to 37.9 µM), inactives show at the highest dose activity change, negative = inhibition, usual class: inhibitors; 1.2% of 300,000 active; AID 540256; active means well fitted inhibition curve with a large enough effect; inconclusive means small, poorly fitted or top-dose-only effect, or effect the other way; inactive means flat fitted curve, though single readings scatter; tested in HEK293 cells; note: % is set by controls: 0 for no effect and ±100 for the full control effect; nearly all actives have a fitted effect of over 50% in size; luciferase read-out
2A StopGo: lowers the luciferase signal of an FMDV 2A StopGo reporter; AID 1159524; human cells with a luciferase reporter of 2A StopGo recoding; control for the full effect not named in the record; 1.2% of 410,000 active; Potency, µM (doses to about 57.9 µM), for the others: at the top dose signal change, negative = less light; active = well fitted falling curve with a large enough effect; inconclusive = small, poorly fitted or top-dose-only effect; inactive = no such curve, though single readings can be large or run the other way; tested in HEK293T cells; note: % is set by controls: 0 for no effect and ±100 for the full control effect; nearly all actives have a fitted effect of over 45% in size; luciferase light after 4 h
MARV entry inh: inhibitors of Marburg virus binding or cell entry; 1.8% of 300,000 active; Potency, µM (doses to about 37.8 µM), for inactives: at the highest dose activity change, negative = inhibition, usual class: inhibitors; Marburg virus pseudotyped entry inhibition, cell reporter; control for the full effect not named in the record; about a third of the inactives were read at about 46 µM; active = well fitted inhibition curve with a large enough effect; inconclusive = small, poorly fitted or top-dose-only effect, or effect the other way; inactive = flat fitted curve, though single readings scatter; tested in HEK293 cells; about a fifth of its hits are not listed in these tables; note: % is set by controls: 0 for no effect and ±100 for the full control effect; luciferase read-out
SARS PLP yeast: inhibitors of SARS-CoV papain-like protease in yeast; S. cerevisiae expressing SARS-CoV PLpro, growth rescue; control for the full effect not named in the record; Potency, µM (titrated, usually from 32.9 µM), without a hit: at the highest dose activity, positive = growth rescue; 0.19% of 330,000 active; active means well fitted rising curve with a large enough effect; inconclusive means small, poorly fitted or top-dose-only effect; inactive means no such curve, though single readings can be large or run the other way; note: 0% is about no effect; nearly all actives have a fitted effect of over 55% in size; growth read by luminescence after 48 h
NS1 inh: inhibitors of influenza NS1 protein function | S. cerevisiae slowed by influenza A NS1, growth recovery by OD600 | AID 2326 | 0.4% of 270,000 active | Potency, µM (highest dose often 46.1 µM), for the others: at the top dose activity, positive = more growth; active means well fitted rising curve with a large enough effect; inconclusive means small, poorly fitted or top-dose-only effect; inactive means no such curve, though single readings can be large or run the other way; note: nearly all actives have a fitted effect of over 50% in size
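Compounds were scored for reversing the slow growth caused by influenza A NS1 in S. cerevisiae, measured by optical density at 600 nm. Assay medium contained 2% galactose at pH 6.0; NS1-free yeast of the same strain were the positive control.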
Cruzain noTriton: blocks cruzain activity in detergent-free assay; AID 1476; 2.3% of 200,000 active; purified cruzain, Z-FR-AMC fluorescence, no detergent; Potency, µM, for the others: max response, negative = inhibition, hits mostly inhibitors;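 note: plate controls were enzyme without inhibitor for no effect and buffer without enzyme for full effect; nearly all actives have a fitted effect of over 40% in size; top concentration of the series not given in the record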
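Detergent-free condition (0.00005% Triton X-100) in acetate buffer pH 5.5 with DTT. 1.5 nM enzyme and compound were pre-mixed 15 min, then 2 uM Z-FR-AMC substrate added; reaction progress from fluorescence change between first and third reads (60 s).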
RE007 growth inh: less growth of the S. pombe RE007 Vpr strain; S. pombe RE007 Vpr strain, BacTiter-Glo ATP luminescence, 24 h; control for the full effect not named in the record; Potency, µM (doses to about 92.2 µM), without a hit: top-dose activity change, negative = less growth; 0.21% of 360,000 active; AID 651644; active = well fitted falling curve with a large enough effect; inconclusive = small, poorly fitted or top-dose-only effect; inactive = no such curve, though single readings can be large or run the other way;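 note: % is set by controls: 0 for no effect and ±100 for the full control effect; nearly all actives have a fitted effect of over 50% in size; the assay follows cell death caused by Vpr and the record does not say whether a fall means rescue or toxicity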
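Fission yeast strain RE007, carrying one chromosomally integrated HIV-1 vpr copy, was seeded at OD 0.01 in PMG+AL medium with 23 nL pinned compound. After 24 h at 30 °C and 99% humidity, viability was read by BacTiter-Glo luminescence.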
* = called active by the depositor; ? = inconclusive; . = not tested or not shown; & = joins results of further samples; [ ] = dose if it differs, or a comment. Unless noted, calls come from the whole dose curve; as a rule, active = well fitted curve in the direction sought with a large enough effect; inconclusive = small, poorly fitted or top-dose-only effect, or another doubt; inactive = no such curve, though single readings can be large; an effect the other way counts as inactive or inconclusive. Potency is the fitted concentration of half-maximal effect.

no.	molecule	Cruzain inh Det	Lassa entry inh	2A StopGo	MARV entry inh
1	Cc1ccc(NS(=O)(=O)c2cc(C(=O)NCCSc3ccc(C)cc3)ccc2C)cc1	-3.1%	?	.	?
2	O=C(Nc1nc(=O)c2ccccc2s1)c1ccccc1	-5.2%	-25%	0%	?
3	NC(=O)C1(N2CCCC2)CCN(Cc2ccccc2)CC1	.	14%[46.1 µM]	-17%	-10%
4	COc1ccc(NC(=O)c2ncoc2-c2ccco2)cc1Cl	-3.3%	1%[46.1 µM]	-7%	.
5	CC(=O)N1CN(C2CCS(=O)(=O)C2)Cc2c1sc1c2CCCC1 (stereo not given)	-1.7%	6%	-3%	-1%
6	Cc1cnc(=O)[nH]c1SCC(=O)Nc1nccs1	.	3%	8%	6%
7	c1csc(CNc2ncnc3nc[nH]c23)c1	-0.8%	10%	-6%	9%
8	O=C(/C=C/c1ccc2c(c1)OCO2)N1CCOCC1	6.3%	2%	32%[activator]	8%
9	CC(=O)Nc1ccc(NC(=O)C(C)OC(=O)CCCOc2ccc(Cl)c(C)c2)cc1 (stereo not given)	.	?	-13%	1%
10	O=[N+]([O-])c1nn(-c2ccccc2)n(O)c1=NCc1ccc2c(c1)OCO2	-0.6%	4%	.	10%
11	O=C(c1ccc2nccnc2c1)N1CCN(Cc2ccc3c(c2)OCO3)CC1	3.3%	5%	-14%	?
12	CCOC(=O)C1=NN(C(C)=O)C2(CC(=O)N(c3cc(C)cc(C)c3)C2=O)C1 (stereo not given)	-0.9%	6%	-10%	?
13	CC(C)COP(=O)(OCC(C)C)C(O)c1ccccc1F (stereo not given)	2.1%	28%	57%[activator]	6%
14	COC(=O)c1cc2oc3ccccc3c2n1CC(=O)Nc1ccccc1OC	6.1%	-20%	6%	-12%
15	COc1ccc2[nH]cc(CCN=C(NC(=O)c3ccccc3OC)Nc3nc(C)cc(C)n3)c2c1	-9.4%	?	?	?

no.	SARS PLP yeast	NS1 inh	Cruzain noTriton	RE007 growth inh
1	-1%	20%	6%	14%
2	-15%	8%	-25%	?
3	.	.	.	4%
4	.	.	-3%	.
5	1%	?	2%	-19%
6	-1%	.	.	6%
7	1%	-62%	-5%	-2%
8	0%	4%	-7%	14%
9	-6%	-6%	.	19%
10	1%	-6%	-5%	-9%
11	4%	-2%	-10%	7%
12	4%	3%	-8%	-4%
13	-1%	13%	-7%	9%
14	4%	1%	-16%	9%
15	.	.	?	.

Overlap with the part before: four compounds, then new ones.
no.	molecule	Cruzain inh Det	Lassa entry inh	2A StopGo	MARV entry inh
12	CCOC(=O)C1=NN(C(C)=O)C2(CC(=O)N(c3cc(C)cc(C)c3)C2=O)C1 (stereo not given)	-0.9%	6%	-10%	?
13	CC(C)COP(=O)(OCC(C)C)C(O)c1ccccc1F (stereo not given)	2.1%	28%	57%[activator]	6%
14	COC(=O)c1cc2oc3ccccc3c2n1CC(=O)Nc1ccccc1OC	6.1%	-20%	6%	-12%
15	COc1ccc2[nH]cc(CCN=C(NC(=O)c3ccccc3OC)Nc3nc(C)cc(C)n3)c2c1	-9.4%	?	?	?
16	C=CCn1cc(/C=C2/NC(=O)NC2=O)c2ccccc21	.	?	-13%	6%
17	CC1(C)Cc2ccccc2C(=NC(Cc2ccccc2)C(=O)O)N1 (stereo not given)	.	.	-15%	.
18	CC(OC(=O)c1ccccc1NS(=O)(=O)c1cccc(N)c1)C(=O)N(C)Cc1ccccc1 (stereo not given)	-3.1%	?	7%	?
19	Cc1oc(C(C)(C)C)cc1C(=O)N1CCCC1C(=O)O (stereo not given)	-2.1%	-9%	22%	2%
20	O=S1(=O)C[C@@H](O)[C@@H](Nc2ccccc2)C1	.	6%	-12%	-9%
21	CC(C)N(C(=O)Cn1cc(SCC(=O)NCc2ccco2)c2ccccc21)C(C)C	.	-3%	-7%	-24%
22	Cc1cc(NC(=O)c2cnn3c(C(F)(F)F)cc(-c4ccccc4)nc23)no1	-2.1%	-14%	.	?
23	COc1ccc(S(=O)(=O)Nc2cccc(-n3cnnn3)c2)cc1	.	.	17%	.
24	COc1ccccc1N(CC(=O)NC(C)(C)C)C(=O)c1ccc(Cl)nc1	.	10%[46.1 µM]	7%	-18%[46.1 µM]
25	COCCCn1c(C(=O)NCCC2=CCCCC2)cc2c(=O)n3ccccc3nc21	.	20%[46.1 µM]	-19%	21%[46.1 µM]
26	O=C(O)C1CCCCC1C(=O)NCCc1ccc(F)cc1 (stereo not given)	.	19%[46.1 µM]	18%	18%[46.1 µM]
27	CNC(=O)CSc1nnc(-c2cccc(S(=O)(=O)N3CCOCC3)c2)n1-c1ccc(F)cc1	4.1%	6%	21%	-3%&-3%
28	CC1CCN(Cc2nnnn2-c2ccc(Cl)cc2)CC1	1.5%	-4%	0%	?
29	COc1ccc(NC(=O)Nc2ccccc2F)c([N+](=O)[O-])c1	.	.	7%	.
30	O=C(c1ccc(Br)o1)N1CCN(c2ccc(F)cc2)CC1	2.0%	-1%	2%	-17%

no.	SARS PLP yeast	NS1 inh	Cruzain noTriton	RE007 growth inh
12	4%	3%	-8%	-4%
13	-1%	13%	-7%	9%
14	4%	1%	-16%	9%
15	.	.	?	.
16	1%	-4%	.	-1%
17	2%	13%	.	-9%
18	-10%	?	-9%	7%
19	19%	-5%	1%	15%
20	0%	2%	.	8%
21	-4%	.	.	-12%
22	2%	-41%	?	10%
23	3%	11%	.	2%
24	1%	3%	.	4%
25	1%	3%	.	14%
26	0%	4%	.	13%
27	3%	5%	13%	9%
28	15%	7%	5%	-23%
29	0%	-5%	.	-7%
30	-12%	-12%	0%	5%

(further entries)
no.	molecule	Cruzain inh Det	Lassa entry inh	2A StopGo	MARV entry inh
31	COc1cccc2c1Oc1ncccc1N(c1ccc(C(=O)NCc3ccccc3C)s1)C2	-14%	-22%[46.1 µM]	-20%	.
32	CC(=O)Nc1cccc(NC(=O)C2C3C=CC(C3)C2C(=O)O)c1 (stereo not given)	.	.	-24%	.
33	O=C(Nc1ccc(N2CCN(C(=O)c3ccco3)CC2)cc1)c1ccccc1	.	7%	11%	10%[46.1 µM]
34	O=C(N/N=C1\CCCCc2ccccc21)c1ccccn1	.	?	41%[activator]	?
35	CCc1nnc(NC(=O)c2cccc(S(=O)(=O)N3CCCC3)c2)s1	.	?	5%	-2%[46.1 µM]
36	CCCn1c(=O)c2sccc2n2c(CCCC(=O)NCCOC)nnc12	-1.6%	8%[46.1 µM]	3%	.
37	COc1ccc(-c2nc3cc(NC(=O)c4ccc(C)cc4)ccc3o2)cc1Cl	1.8%	11%[46.1 µM]	0%	.
38	CC12Cc3cnoc3C=C1CCC1C2CCC2(C)C1CCC2(C)O (stereo not given)	.	?	35µM*	-18%
39	Cc1ccc(-n2c(C)cc(C=C3C(=O)CC(C)(C)CC3=O)c2C)cc1	-6.6%	12%	-8%	-3%
40	COc1ccc(N=CC2=C(O)CC(c3ccccc3)CC2=O)c(OC)c1 (stereo not given)	-1.3%	?	-20%	-28%
41	O=S(=O)(c1ccccc1)N1CCN(Cc2cccc(Br)c2)CC1	.	-17%	-26%	-5%
42	COc1ccc(-c2nc3ccccc3c(=O)n2CCc2ccc(O)cc2)cc1	.	.	1%	.
43	COc1ccc(CNC(=O)CCCN2C(=O)CSc3c2c(C)nn3-c2ccccc2)c(OC)c1	-4.5%	-6%[46.1 µM]	0%	.
44	O=c1[nH]c(=S)n(C2CC2)c(O)c1/C=N/Nc1ccccc1	-12%	?	35%[activator]	28%
45	CCOC(=O)N/N=C(\C)c1ccc(OC(F)F)cc1OC(F)F	-3.8%	.	-17%	-5%

no.	SARS PLP yeast	NS1 inh	Cruzain noTriton	RE007 growth inh
31	.	.	?	.
32	-1%	-2%	.	-3%
33	-1%	1%	.	-26%
34	1%	.	.	8%
35	-3%	19%	.	-5%
36	.	.	6%	.
37	.	.	6%	.
38	.	.	.	14%
39	?	9%	-14%	9%
40	-31%	13%	14%	-20%
41	.	.	.	-9%
42	1%	-1%	.	10%
43	.	.	?	.
44	-23%	-8%	-15%	164%
45	4%	-4%	2%	-5%

The listing continues.
no.	molecule	Cruzain inh Det	Lassa entry inh	2A StopGo	MARV entry inh
46	Cc1cc(C)n(CCNCc2c(C(=O)N3C[C@@H](C)O[C@@H](C)C3)nc3ccc(Cl)cn23)n1	.	-4%[46.1 µM]	-12%	-14%[46.1 µM]
47	Cc1ccc(S(=O)(=O)N2CCC(C(=O)OC(C)C(=O)N3CCOCC3)CC2)cc1 (stereo not given)	.	-5%	-23%	7%
48	O=C(NCc1cccc(Cl)c1)C1CCC(=O)N(CCCN2CCOCC2)C1 (stereo not given)	.	.	0%	.
49	Cc1cccc(NC(=O)c2cc3c(=O)n(Cc4ccco4)ccc3nc2C)c1	-5.9%	-16%[46.1 µM]	-15%	.
50	CCOc1ccccc1NC(=O)NC1CCCc2ccccc21 (stereo not given)	.	.	?	.
51	Cc1ccc(C(C)(C)C)cc1S(=O)(=O)N1CCC(C(=O)N2CCN(c3ccc(O)cc3)CC2)CC1	.	2.8µM*	?	?
52	CN(C)c1ccc(C(=S)N2CCCCCC2)cc1	14µM*	?	-13%	6%
53	Cc1cc(O)c(C(C)C)cc1NC(=O)Cn1nc(C)c2ccccc2c1=O	2.9%	-16%	14%	-21%
54	CC(C)=C1SC(N2CCN(c3ccc(Cl)cc3)CC2)=NC1=O	.	-3%	-14%	?

no.	SARS PLP yeast	NS1 inh	Cruzain noTriton	RE007 growth inh
46	-1%	2%	.	1%
47	2%	.	.	9%
48	3%	11%	.	7%
49	.	.	?	.
50	0%	6%	.	3%
51	1%	.	.	10%
52	24%	3%	6.3µM*	11%
53	2%	-2%	?	-7%
54	-5%	.	.	12%
